# Compound activity deposited in PubChem BioAssay by Southern Research Institute.
# Mtb growth: Mycobacterium tuberculosis H37Rv growth inhibition, putative kinase inhibitor library, confirmatory dose response (AID 2842); one-dose inhibition, % at 10 µg/mL; IC90 in µg/mL for titrated hits; M. tuberculosis H37Rv growth inhibition; higher % means a stronger effect; some inactives read as strong as hits; 24,000 compounds, 5.2% hits;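 active = confirmed in a dose series; about a fifth of its hits are not listed in these tables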;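 also: bacteria incubated one week before Alamar blue readout; 0% = bacteria only wells and 100% = bacteria with high antibiotic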
# * marks the source's active call; other numbers are inactive results.
# Start of the data: the first 4 records, ahead of the listing:
Compound | Mtb growth
COc1ccc(-c2nnc3ccc(SCc4ccccc4)nn23)cc1OC | 7%
COc1cc(/C=N\NC(=O)c2ccc3[nH]c4c(c3c2)CCCC4)cc([N+](=O)[O-])c1O | 36%
O=C(CSc1nc(-c2ccccc2)c2ccccc2n1)NCc1ccc2c(c1)OCO2 | -3%
O=C(CSc1ncnc2ccccc12)Nc1cc(C(F)(F)F)ccc1Cl | -2%

# This part in full, previewed entries included:
Compound | Mtb growth
COc1ccc(-c2nnc3ccc(SCc4ccccc4)nn23)cc1OC | 7%
COc1cc(/C=N\NC(=O)c2ccc3[nH]c4c(c3c2)CCCC4)cc([N+](=O)[O-])c1O | 36%
O=C(CSc1nc(-c2ccccc2)c2ccccc2n1)NCc1ccc2c(c1)OCO2 | -3%
O=C(CSc1ncnc2ccccc12)Nc1cc(C(F)(F)F)ccc1Cl | -2%
Cc1ccc(C)c(-c2nnc(NC(=O)c3cc([N+](=O)[O-])ccc3Cl)o2)c1 | <0.2µg/mL*
CNC(=O)c1ccsc1NC(=O)c1cccc(Cl)c1 | -15%
Cc1ccc(S(=O)(=O)c2cnc(SCC(=O)Nc3cccc(Cl)c3)[nH]c2=O)cc1 | -20%
O=C(CN1C(=O)/C(=C\c2cccs2)SC1=S)Nc1cccc2ccccc12 | -8%
NC(=O)c1nc(C2CCCCC2)nc2c1[nH]c(=O)n2-c1ccc(F)cc1 | 2%
COc1ccc(C2CC(c3cccc(NS(C)(=O)=O)c3)=NN2C(=O)c2ccco2)cc1 (stereo not drawn) | -4%
CC1(C)Cc2c(sc(NC(=O)c3cccc(F)c3)c2C(N)=O)C(C)(C)N1 | -5%
COc1ccc(CC(=O)Nc2ccc3c(c2)NC(=O)C(C)(C)CO3)cc1 | -3%
COc1ccc(N2C(=O)C3N=NN(Cc4ccccc4Cl)C3C2=O)cc1OC (stereo not drawn) | -7%
COc1ccc(-c2nnc3ccc(SCC(=O)Nc4ccc(C)c(Cl)c4)nn23)cc1 | -5%
CC(C)c1nnc(NC(=O)c2cc(Cl)ccc2Cl)s1 | -4%

# Other results follow.
Compound | Mtb growth
Cc1cc(NC(=O)CCCN2C(=O)/C(=C\c3ccco3)SC2=S)no1 | 0%
CCOC(=O)c1nn(-c2cccc(Cl)c2)c(=O)c2c(NC(=O)c3ccco3)scc12 | 0%
O=C(Nc1nnc(-c2cc(Cl)ccc2Cl)o1)c1ccccc1F | 0.43µg/mL*
CCOC(=O)Cc1csc(NC(=O)COc2ccc([N+](=O)[O-])cc2)n1 | 4%
CN(C)S(=O)(=O)c1ccc(C(=O)Nc2nnc(-c3ccc(S(C)(=O)=O)cc3)o2)cc1 | -5%
COCCN(CCOC)c1ncnc2c1c(-c1ccccc1)cn2-c1ccc(Br)cc1 | 9%
N#C/C(=N\Nc1cc(C(F)(F)F)ccc1Cl)c1nc(-c2ccc([N+](=O)[O-])cc2)cs1 | -4%
COc1ccc(S(=O)(=O)ON2C(=O)c3ccccc3C2=O)cc1OC | -4%
CCOC(=O)COc1cc(=O)[nH]c2ccccc12 | 0%
CCOC(=O)CCCSc1nc2sc(C(=O)O)c(C)c2c(=O)[nH]1 | -21%
Cc1cc(NC(=O)CSc2nnc(Cc3cc(=O)[nH]c(=O)[nH]3)n2-c2ccc(Cl)cc2)no1 | 5%
COc1ccc(Cn2cc3c(-c4ccc(F)cc4)nnc-3c3cc(C)ccc32)cc1 | 2%
CN1CCc2c(sc(NC(=O)c3cc(-c4ccccc4)nc4ccccc34)c2C(N)=O)C1 | 81%
CCCc1cc(=O)[nH]c2nnc(SC(CC)C(=O)OCC)n12 (stereo not drawn) | 20%
COC(=O)c1c(NC(=O)c2ccc(O)cc2)sc2c1CCC(C)C2 (stereo not drawn) | 10%

# Further compounds follow.
Compound | Mtb growth
COc1ccc(NC(=O)c2cn(C)cc3c(=O)n(-c4ccccc4)nc2-3)cc1 | 1%
CCOC(=O)c1nn(-c2ccc(OC)cc2)c(=O)c2c(NC(=O)c3ccc(OCC)cc3)scc12 | 2%
CN(C)S(=O)(=O)c1ccc(C(=O)NCc2nnc(SCC(=O)Nc3ccccc3)o2)cc1 | -11%
COC(=O)C1=C(N)Oc2cc(C)n(Cc3ccccc3)c(=O)c2C12C(=O)N(C)c1ccccc12 (stereo not drawn) | -10%
Cc1nnc(SCC(=O)Nc2cc(C(F)(F)F)ccc2Cl)n(N)c1=O | -3%
CSc1nc2ccc3nc(NC(=O)c4ccco4)sc3c2s1 | 7%
COc1ccc(CC(=O)Nc2nnc(-c3ccc(C)cc3)s2)cc1 | 6%
CC(=O)N1CCCc2ccc(NS(=O)(=O)c3ccccc3)cc21 | 15%
Cc1ccc(C)c(-c2nnc(NC(=O)c3ccccc3C)o2)c1 | 2.5µg/mL*
CC(C)CCn1c(SCCCO)nc2c1c(=O)[nH]c(=O)n2C | 6%
O=C(Nc1nnc(-c2ccc(Cl)cc2)s1)c1cc(Cl)ccc1Cl | -2%
N#Cc1c(NC(=O)c2cccc(Cl)c2)sc2c1CCC2 | 3%
O=C(CSC1=NS(=O)(=O)c2ccccc2N1)Nc1ccc(Br)cc1 | -1%
COc1cccc2sc(NNC(=O)c3cc(-c4cccs4)nc4ccccc34)nc12 | 85%
Cc1c(-c2cc(C(=O)O)c3cc(Br)ccc3n2)nnn1-c1ccccc1 | -2%

# (further entries)
Compound | Mtb growth
O=C(NCc1ccc2c(c1)OCO2)c1cccc(NC2=NC3CS(=O)(=O)CC3S2)c1 (stereo not drawn) | -2%
O=C(CSc1nc2c(c(=O)n1-c1ccc(Cl)cc1)SCC2)NCc1ccco1 | 7%
O=C(COc1ccc2ccccc2c1)Oc1coc(CSc2ncccn2)cc1=O | 8%
N#C/C(=C\c1ccccc1Cl)C(=O)Nc1cccnc1 | -3%
CCOCCn1c(SCC(C)=O)nc2c1c(=O)[nH]c(=O)n2C | 9%
COc1ccc(-c2nnc3ccc(SCC(=O)c4ccccc4)nn23)cc1 | -9%
COc1cccc(-c2nc(C(N)=O)c3[nH]c(=O)n(-c4ccccc4OC)c3n2)c1 | 4%
O=C(CSc1ccc2nnc(-c3ccccn3)n2n1)Nc1ccccc1 | -6%
CCc1nc(SCC(=O)Nc2ccc([N+](=O)[O-])cc2)c2c(=O)n(C)c(=O)n(C)c2n1 | 6%
O=C(Nc1nnc(-c2ccc(F)cc2)s1)C1CC1 | 8%
COc1ccc2[nH]c3c(=O)n(CCCCC(=O)NCc4cccnc4)c(=S)[nH]c3c2c1 | 8%
Cc1ccc(NC(=O)c2oc3ccccc3c2NC(=O)/C=C\c2ccc3c(c2)OCO3)cc1 | 60%
O=C(c1ccc(N2C(=O)CCC2=O)cc1)N(Cc1ccccn1)c1nc2ccccc2s1 | -2%
Cn1ncc2c(NCCO)nc(Nc3ccc(F)cc3F)nc21 | 14%
Cc1nc2ccc3nc(NC(=O)c4ccc(Cl)cc4)sc3c2s1 | 5%

# (next part)
Compound | Mtb growth
CCOC(=O)c1ccccc1NC(=O)CSc1ncnc2c1nnn2-c1ccc(C)cc1 | -2%
CCOc1ccc2nc(Nc3nc4c(F)cccc4s3)sc2c1 | 82%
Cc1cc2c(cc1C)NC(CC(=O)Nc1cccc(C)c1C)C(=O)N2 (stereo not drawn) | -12%
O=C(CS(=O)(=O)c1ccc(Cl)cc1)Nc1ccc2scnc2c1 | 44%
COc1ccc2c(c1)c(=O)c(C(=O)c1ccc(F)cc1)cn2CC(=O)Nc1ccc(F)cc1 | 67%
CCOC(=O)CCC(=O)Nc1c(C(=O)Nc2cc(OC)ccc2OC)oc2ccccc12 | -7%
NC(=O)c1c(NC(=O)CS(=O)(=O)Cc2ccccc2)sc2c1CCC2 | -2%
CC(Oc1ccc(C(=O)Nc2ccc(F)cc2)cc1)C(=O)O (stereo not drawn) | -12%
O=C(Nc1ccc2oc(-c3ccccc3F)cc(=O)c2c1)c1ccncc1 | 0%
Nc1nc(SCC(=O)Nc2cccc(F)c2)[nH]c(=O)c1NC(=O)c1ccc(Cl)cc1 | -10%
O=C1Cc2cc(NC(=O)c3cc4ccccc4oc3=O)ccc2N1 | 7%
NC(=O)c1cc2ccccc2o/c1=N/NC(=O)c1ccncc1 | -7%
O=C(C1CCCCC1)N1CCN=C1SCc1cccnc1 | -6%
O=C(CCN1C(=O)c2ccccc2S1(=O)=O)Nc1ccon1 | -3%
Cc1cccc(NC(=O)N2c3ccccc3CC2C(N)=O)c1 (stereo not drawn) | 4%

# The closing 5 records of the section above open the next one:
Compound | Mtb growth
O=C1Cc2cc(NC(=O)c3cc4ccccc4oc3=O)ccc2N1 | 7%
NC(=O)c1cc2ccccc2o/c1=N/NC(=O)c1ccncc1 | -7%
O=C(C1CCCCC1)N1CCN=C1SCc1cccnc1 | -6%
O=C(CCN1C(=O)c2ccccc2S1(=O)=O)Nc1ccon1 | -3%
Cc1cccc(NC(=O)N2c3ccccc3CC2C(N)=O)c1 (stereo not drawn) | 4%
O=C(Nc1nc(-c2ccccc2)c(C(=O)c2ccccc2)s1)c1ccccc1Br | 17%
CCOC(=O)/C=C/CSc1nc2sc3c(c2c(=O)[nH]1)CCCC3 | 13µg/mL*
Cn1c(=O)[nH]c(=O)c2c1nc(N1CCN(Cc3c(F)cccc3Cl)CC1)n2CCc1ccccc1 | -5%
CCOC(=O)N1CCN(c2ncnc3c2cnn3-c2ccc(F)cc2)CC1 | 31%
CC(C)CCn1c(N2CCN(Cc3ccc(F)cc3)CC2)nc2c1c(=O)[nH]c(=O)n2C | 11%
CCCc1cc(=O)[nH]c2nnc(SCc3ccc(C(=O)OC)o3)n12 | -9%
Cc1cccc(-c2nc3c(c(SCC(=O)N4CCOCC4)n2)Cc2c(CO)cnc(C)c2O3)c1 | 8%
Cc1ccc(C)c(-c2nnc(NC(=O)c3ccc(C#N)cc3)o2)c1 | 23µg/mL*
COc1cc2c3nnc(-c4ccc(F)cc4)c-3cn(Cc3cccc(F)c3)c2cc1OC | 3%
COc1ccc(OC)c2[nH]c(=O)c(CCNC(=O)c3ccccc3C)cc12 | 11%
NS(=O)(=O)c1ccc(NC(=O)Nc2cccc(Cl)c2)cc1 | 0%
O=C(CSc1ccnc(=O)[nH]1)N1CCCCC1 | -13%
COc1ccc(/C=C\C(=O)NCCc2cc3c(C)ccc(C)c3[nH]c2=O)cc1OC | -4%
CCOC(=O)c1nn(-c2ccc(OC)cc2)c(=O)c2c(NC(=O)c3cc(OC)cc(OC)c3)scc12 | 12%
N#Cc1nc(-c2ccccc2Cl)oc1N1CCCC1 | -10%

# (more compounds)
Compound | Mtb growth
Cc1n[nH]c(=O)nc1N/N=C/c1ccc(N(C)C)cc1 | -5%
Cc1cc(=O)[nH]c(N/N=C/C(C)c2ccccc2)n1 (stereo not drawn) | 28%
CCOC(=O)CSc1nnc(CNC(=O)c2cccs2)n1-c1ccc([N+](=O)[O-])cc1 | -3%
CCOC(=O)Cn1c(=O)c2c(nc3n(-c4cccc(C)c4C)c(C)cn23)n(C)c1=O | -3%
COc1ccc(S(=O)(=O)c2cn(Cc3cccc(OC)c3)c3ccc(OC)cc3c2=O)cc1 | 4%
O=C(CCOc1ccccc1)Nc1nc(-c2ccc(-c3ccccc3)cc2)cs1 | 21%
CCOC(=O)c1ccc2nc(NC(=O)c3ccc(OC)cc3)sc2c1 | 1%
CC(C)OC(=O)c1ccc(Cn2cnc3sc4c(c3c2=O)CCCC4)cc1 | -21%
O=C1N=C(N2CCOCC2)S/C1=C/c1ccc(O)c([N+](=O)[O-])c1 | -25%
COc1ccc(C(=O)N(C)c2nnc(C34CC5CC(CC(C5)C3)C4)s2)cc1OC | 8%
NC(=O)c1ccsc1NC(=O)C1=COCCO1 | -3%
O=C(CN(C1=NC2CS(=O)(=O)CC2S1)c1cccc(C(F)(F)F)c1)Nc1ccccc1 (stereo not drawn) | 0%
O=C1C(Cl)=C(Nc2cccc(O)c2)C(=O)N1c1ccccc1Cl | -2%
CCCc1cc(=O)[nH]c2nnc(SCc3cccc([N+](=O)[O-])c3)n12 | -17%
Cc1cc(C(=O)n2nnc3ccccc32)ccc1[N+](=O)[O-] | 1%

# Next results
Compound | Mtb growth
CSc1ccc2nc(Nc3nc4ccc(NC(C)=O)cc4s3)sc2c1 | <0.2µg/mL*
O=C(Nc1ccc2c(c1)OCCO2)c1oc2ccccc2c1NC(=O)c1cc2ccccc2oc1=O | -6%
CCn1cc(C(=O)Nc2cccc(F)c2)c2nn(-c3ccccc3)c(=O)c-2c1 | -5%
COc1ccc(CNc2nc3c(-c4ccc(Cl)cc4)nnn3c3ccccc23)cc1 | 5%
CCC1CCCCN1Cc1c(C)[nH]c2ccc(N3CCOCC3)cc2c1=O (stereo not drawn) | -9%
COc1cccc(NC(=O)c2cnc3sccn3c2=O)c1 | -3%
Cc1c(OCC(N)=O)ccc2c1oc(=O)c1ccccc12 | 2%
CCOc1ccc(-n2c(SCC(=O)Nc3nc4ccc(C)cc4s3)nc3c([nH]c4ccccc43)c2=O)cc1 | 7%
COc1cccc(NC(=O)Cn2cc(C(=O)c3ccc(Cl)cc3)c(=O)c3cc4c(cc32)OCO4)c1 | 14%
COc1ccc(C(=O)NNc2ncnc3c2cnn3-c2ccc(Cl)cc2)cc1OC | 4%
Cc1cccn2c(=O)c(C=O)c(Nc3ccc([N+](=O)[O-])cc3)nc12 | 8%
CCCSc1nc2c(c(=O)[nH]c(=O)n2C)n1CC | 84%
O=C(c1ccc(Nc2nc(-c3ccccc3)c3cc(Br)ccc3n2)cc1)N1CCCC1 | 21µg/mL*
COc1ccc(CC(=O)NCCc2cc3ccc(OC)cc3[nH]c2=O)cc1 | 3%
O=C(Oc1coc(CSc2ncccn2)cc1=O)c1cc(C(F)(F)F)cc(C(F)(F)F)c1 | -3%
Cc1ccc(NC(=O)c2oc3ccccc3c2NC(=O)c2cccc(F)c2)cc1C | -2%
COc1ccc(-c2nnc3c4cc(OC)c(OC)cc4n(Cc4cccc(C)c4)cc2-3)cc1 | 23%
O=C(Nc1cccc(-c2ccc(N3CCOCC3)nn2)c1)c1cccs1 | -2%

# Only part of the results is shown (hit frequency here may not be typical).
